Screens as filed in PubChem BioAssay.
Vif A3G: inhibitors of Vif binding to APOBEC3G peptide, primary screen, biochemical, TR-FRET, GST-Vif 1-94, biotin-A3G peptide, dose response retest (AID 1117319); TR-FRET GST-Vif / biotin-A3G peptide binding; higher % means a stronger effect; test concentration not given here; strong numbers were not always called active; 0.57% of 260,000 active; one-dose inhibition, %; IC50 in µM for titrated hits;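 active = above the screen mean plus three standard deviations and confirmed in dose response; inconclusive = results disagree or hit not tested in dose response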;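 note: Vif residues 1-94 fused to GST binding biotinylated APOBEC3G peptide 110-148; 0% = full assay without inhibitor and 100% = GST in place of GST-Vif; retest series ran down from 100 µM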
T cruzi repl: T. cruzi replication inhibition; T. cruzi beta-gal in NIH3T3, luminescence, 90 h; inhibition, % (no concentration beside the values); 1.4% of 300,000 active;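 active = mean inhibition across valid replicates above about 55%, limit read from the data; inconclusive = mean below that limit but half or more replicates reach it; inactive = mean below it, under half of replicates reach it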;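 note: signal also drops with host cell toxicity which is not excluded here; 0% = plate median of DMSO wells and 100% = zero luminescence signal; higher percent means less beta-gal luminescence so fewer parasites; stock transfer was 50 nL into about 50 µL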
AF4-AF9 inh: blocks AF4 peptide binding to human AF9. P42568. AlphaScreen, biotin-AF4 peptide binding to FLAG-AF9. inhibition, % at 10 µM. 0.47% of 350,000 active. AID 651704;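 active = every replicate reaching a set inhibition limit, whatever the replicate mean, cut at about 25% in these data; inconclusive = mean inhibition reaches that limit but some replicates miss it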;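 note: 0% = plate neutral control median and 100% = total signal loss; the record names both 10 and 1 µM as test concentration; the first replicate is given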
Target sequence (P42568 whole entry, looked up): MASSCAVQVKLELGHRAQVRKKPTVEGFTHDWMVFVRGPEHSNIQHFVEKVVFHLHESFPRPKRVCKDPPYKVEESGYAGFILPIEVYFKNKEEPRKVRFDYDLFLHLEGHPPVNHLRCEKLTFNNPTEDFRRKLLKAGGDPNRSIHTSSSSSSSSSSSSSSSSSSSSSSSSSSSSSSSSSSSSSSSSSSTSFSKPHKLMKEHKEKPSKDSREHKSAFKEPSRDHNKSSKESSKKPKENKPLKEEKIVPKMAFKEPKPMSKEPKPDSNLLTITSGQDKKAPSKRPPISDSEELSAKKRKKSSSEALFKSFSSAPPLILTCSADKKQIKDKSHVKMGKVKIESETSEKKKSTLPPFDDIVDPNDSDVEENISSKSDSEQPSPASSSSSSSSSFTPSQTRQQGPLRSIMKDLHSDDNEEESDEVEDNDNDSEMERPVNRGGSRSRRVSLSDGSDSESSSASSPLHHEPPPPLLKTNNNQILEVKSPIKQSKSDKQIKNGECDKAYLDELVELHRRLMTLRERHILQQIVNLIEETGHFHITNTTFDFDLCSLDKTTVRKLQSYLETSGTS
Beta cell apopt: beta cell apoptosis inhibition; INS-1E cytokine-induced death, ATP luminescence, 48 h; percent of positive-control rescue, neutral wells zero; protection from apoptosis, % (no concentration beside the values); 0.8% of 300,000 active;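 active = all replicates at 75% or more, or half of them and the mean; inconclusive = half reach 75% but not the mean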;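 note: 0% = cytokine-treated negative control wells and 100% = positive control rescue; higher means more ATP so stronger rescue from cytokine killing; wells of about 40 µL received 100 nL stock; the first replicate is given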
LANA-H2B inh: blocks KSHV LANA binding to histone H2A/H2B | Q9QR71 | inhibition, % (test concentration not listed) | cell-free LANA-H2A/H2B peptide, fluorescence polarization | AID 2629 | 0.6% of 320,000 active; in the data active = inhibition mostly above about 10%, no sharp cut-off; inactive = mostly below about 6.7%;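 note: stock transfer was 7.5 nL into about 10 µL; 0% = median of vehicle wells and 100% = median of positive control wells; one replicate is shown; the record names a cut of 25% in any replicate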
A1 inh: inhibitors of the anti-apoptotic protein A1, read as caspase activation; AID 2462; caspase activation, % (concentration not given with the values); MEF A1-2A-BIM cells, Caspase-Glo 3/7 luminescence, 3 h; percent of clofoctol response, vehicle zero; 0.066% of 330,000 active;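 active = over half of replicate activation scores above 10%, or exactly half above 10 with the replicate mean above 10; inconclusive = replicate mean below 10 yet half the replicates above 10; inactive = over half of replicates below 10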;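 note: wells of about 30 µL received 50 nL stock; many hits fall short of the cut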
Calb FLC: affects C. albicans growth with fluconazole; C. albicans CaCi-2 (fluconazole-resistant clinical isolate) + fluconazole, Alamar Blue growth, 48 h; growth inhibition, % (test concentration not listed); 0.57% of 300,000 active;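 active = most replicates above 75%; inconclusive = exactly half above 75%; inactive = most below 75%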;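 note: all wells also contain fluconazole at 8 µg/ml as a sub-toxic cotreatment; 0% = median of DMSO wells and 100% = median of geldanamycin control wells; wells of about 8 µL received 7.5 nL stock; the first replicate is given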
RanGTP-Impb inh: inhibitors of RanGTP-importin-beta interaction, primary screen, biochemical, FRET, CFP-Ran, YFP-importin-beta, homogeneous | cell-free CFP-Ran/YFP-importin-beta FRET ratio | inhibition, % (no concentration beside the values) | 1.1% of 300,000 active | AID 2216;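 active = most replicates above 15%; inconclusive = exactly half above 15%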;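 note: 0% = DMSO wells and 100% = Ran loaded with GDP instead of GTP; wells of about 40 µL received 100 nL stock; the first replicate is given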
Numbers without * were called inactive; ? = inconclusive; . = no result given; & = joins results of further samples. Not a hit list, and some 4.3% of all compounds hit somewhere here.

#	Compound	Vif A3G	T cruzi repl	AF4-AF9 inh	Beta cell apopt	LANA-H2B inh	A1 inh	Calb FLC	RanGTP-Impb inh
1	CN(Cc1cccs1)c1nc(-c2cccnc2)nc2ccccc12	-7.5%	22.2	-0.4	-6.3	-4.5	-0.7	34.2	-0.6
2	CCCOC(=O)c1ccc(NC(=O)c2ccccc2[N+](=O)[O-])cc1	-4.3%	5.8	-1.3	-8.3	-3.6	-0.6	4.0	8.0
3	O=C(O)c1ccc(/C=N/NC(=O)c2ccc(CN3c4cccc5cccc(c45)S3(=O)=O)cc2)cc1	22.0%	4.4	-1.8	-3.0	-2.8	0.9	15.5	-0.1
4	O=C(Cc1ccccc1)NN1C(=O)C2C3C=CC(C4CC34)C2C1=O (stereo not given)	-11.3%	-1.9	.	8.4	0.9	0.2	-1.9	-1.6
5	CCn1c(=O)c(C(C)=O)nc2ccccc21	-5.6%	-13.2	.	-0.4	-3.5	0.0	-5.3	-6.0
6	O=C(NC12CC3CC(CC(C3)C1)C2)c1cccc(OC(F)F)c1	-8.0%	0.1	-9.2	3.1	-1.1	0.1	3.8	0.7
7	CCOc1ccc(C(=O)NCC(=O)NCC(c2ccco2)N2CCCCC2)cc1OCC (stereo not given)	.	12.8	2.5	-2.0	4.6	1.4	5.6	.
8	COc1ccc(NC(=O)C(=O)N2N=C(C(C)C)CC2(O)C(F)(F)F)cc1 (stereo not given)	2.3%	-16.6	.	.	3.1	0.5	3.0	3.9
9	COc1cc(C)ccc1OCCOCCOc1cccc2ccc(C)nc12	10.0%	-13.5	0.9	-0.3	-0.9	1.1	-18.2	-2.4
10	COc1ccc(-n2cc(-c3ccc(Br)cc3)[nH]c2=S)cc1	.	-12.5	-2.4	-11.9	-6.9	0.8	32.8	1.1
11	CCCC(=O)NC(c1ccco1)c1c(O)ccc2ccccc12 (stereo not given)	10.5%	-4.0	.	-1.5	0.8	1.1	61.6	-4.6
12	COc1ccccc1CNC(=O)CSCc1cnn(-c2ccccc2)c1-n1cccc1	0.3%	28.0	.	1.8	-3.1	-0.3	9.3	1.6
13	O=S(=O)(c1cccs1)N1CCCc2ccccc21	-0.3%	1.6	.	3.0	-2.6	1.3	1.9	2.1
14	C#CCN(Cc1ccco1)C(=O)c1ccc(OC2CCN(Cc3ccccn3)CC2)cc1	.	1.7	3.2	-2.2	5.4	0.0	-29.9	2.5
15	COCCNC(=O)c1ccc2c(c1)CCN2S(C)(=O)=O	-0.5%	-1.3	-1.6	-4.6	6.9	0.0	-12.5	.
16	O=C(c1ccc(CS(=O)c2ccc(F)cc2)o1)N1CCN(C2CCCCC2)CC1 (stereo not given)	.	27.6	-2.9	-2.9	0.2	-2.1	1.5	?
17	O=C1CN(C(=O)c2ccc3nc(Cc4cccc(Cl)c4)oc3c2)CCN1	-5.0%	-15.8	0.7	-0.2	1.8	0.9	-0.7	-3.3
18	O=C(C1CCN(C2CCN(Cc3ccc4c(c3)CCO4)CC2)CC1)N1CCCC1	5.5%	-8.0	0.9	0.3	-0.1	-0.6	1.1	-1.8
19	COc1cc(C(=O)Nc2ccc(S(=O)(=O)Nc3nccc(C)n3)cc2)cc(OC)c1OC	-0.2%	1.4	.	5.3	0.4	-0.1	-0.4	1.4
20	COc1ccc(C(C)(C)C)cc1NS(=O)(=O)c1cccc2cccnc12	1.9%	21.8	0.3	-0.6	1.6	0.2	2.2	-0.5
21	CCN(c1ccccc1)S(=O)(=O)c1ccc(Cl)c(C(=O)NCCc2ccc(OC)cc2)c1	23.1%	1.5	.	0.5	.	0.2	19.8	0.9
22	O=[N+]([O-])c1ccc2[nH]c(O)c(N=NC3CCS(=O)(=O)C3)c2c1 (stereo not given)	-0.3%	3.2	1.9	-5.5	-2.8	1.4	-9.9	1.2
23	O=C(O)c1ccccc1OCc1ccccc1Cl	.	-2.6	3.2	0.0	3.8	0.5	-0.9	-1.0
24	O=C(/C=C/c1cccs1)Nc1nccs1	?	-4.6	0.4	-3.9	-1.9	-8.0	-1.7	0.2
25	CSc1ccc(C#N)cc1NC(=O)c1ccc(Cl)cc1Cl	-16.4%	-2.9	.	4.5	-5.3	-0.8	-12.9	-2.5
26	COC(=O)c1ccc(CSc2nc3c(c(=O)n2-c2ccc(Br)cc2)SCC3)o1	?	?	.	9.0	-1.4	-0.2	?	1.8
27	Cc1cc(Cl)ccc1Nc1ncccc1C(N)=O	-10.2%	-2.4	-2.1	-3.2	2.0	-0.6	24.4	?
28	COc1ccc(C2=Nn3c(C)nnc3SC2)cc1	0.1%	-0.6	-0.5	.	0.0	0.1	-3.3	-0.4
29	CC(C)(C)c1cc[n+](/C(C(=S)Nc2ccccc2F)=C(/[O-])c2ccc3c(c2)OCCO3)cc1	9.9%	40.0	8.6	6.7	-5.4	-0.8	-8.0	4.1
30	Cc1nc2nc(N)nn2c(C)c1C/C=C/c1ccccc1	-0.9%	-8.8	-2.6	-0.9	.	0.7	15.2	6.8
31	O=C(NC1CCCCC1)c1cccc(S(=O)(=O)N2CCOCC2)c1	-4.3%&-1.9%	2.8	.	-10.8	2.1	-1.2	-4.2	1.1
32	COc1ccccc1Cc1noc(COc2cccc(C)c2C)n1	-4.1%	0.4	.	-6.2	0.0	1.0	-6.1	3.1
33	CC(=O)Nc1scc(C)c1-c1nc2ccccc2s1	-8.8%	18.3	-1.8	8.0	2.6	0.6	-8.5	-1.5
34	CCC(=O)c1cc2c(cc1NC(=O)c1cccs1)OCCO2	3.9%	11.4	0.8	0.7	2.8	1.3	-5.8	-4.1
35	Cc1ccc(N(C)C(=O)CCS(=O)(=O)c2ccc3c(c2)oc(=O)n3C)cc1	.	-11.6	-3.0	-4.8	-4.6	-2.1	3.6	1.0
36	COC(=O)Nc1snnc1C	-2.0%	-18.6	.	.	-13.8	0.7	-2.5	-6.3
37	COc1ccc(-n2c(CN3CCC(C(N)=O)CC3)nc3ccc([N+](=O)[O-])cc3c2=O)c(OC)c1	22.4%	1.5	0.3	-6.7	0.4	-0.7	4.5	-0.1
38	CC(NC(=O)COC(=O)Cc1ccc(Cl)cc1)c1ccccc1 (stereo not given)	2.9%	.	-1.2	-5.7	3.0	-0.5	.	.
39	CC1CC1C(=O)Nc1nc2ccc(S(C)(=O)=O)cc2s1 (stereo not given)	.	-4.0	-0.5	-2.2	-3.6	0.3	3.7	7.5
40	O=C(Cc1ccccc1)N/N=C/c1cc(Br)c(Br)o1	27.5%	-7.4	.	6.8	-2.6	0.6	18.7	?
41	CSc1ncccc1C(=O)Nc1ccc(S(=O)(=O)NC2=NCCCCC2)cc1	-1.0%	-5.4	-0.1	-6.3	6.2	-0.2	-7.1	1.2
42	Cc1ccc(N2CC(C(=O)Nc3ccc(N(C)C)cc3)CC2=O)cc1C (stereo not given)	5.4%	-9.3	.	-1.0	4.4	0.3	-12.1	1.1
43	O=C(Oc1ccc([N+](=O)[O-])cc1)C1CC(=O)N(c2ccc3c(c2)OCCO3)C1 (stereo not given)	4.0%	.	-0.8	-0.9	3.8	-1.4	.	.
44	Cn1cc(/C=N\NC(=O)C2COc3ccccc3O2)c2ccccc21 (stereo not given)	30.9%	-14.7	-1.5	-6.9	2.0	0.5	-9.7	2.1
45	COc1ccccc1CC(Cc1nc2ccccc2[nH]1)c1nc2ccccc2[nH]1 (stereo not given)	.	4.7	0.3	10.4	6.1	0.3	9.3	0.4
46	Cc1cc(S(=O)(=O)N2CCOCC2)ccc1OCC(=O)Nc1ccc(F)cc1	.	12.2	-0.5	.	3.8	-0.1	-20.8	0.3
47	Cn1cc(CN2CCCC(CO)(Cc3cccc(Cl)c3)C2)cn1 (stereo not given)	?	21.6	-0.7	3.0	-0.8	0.1	3.3	1.0
48	S=C(NC1CCCCC1)N(CCc1nc2ccccc2[nH]1)C1CCCC1	8.6%	14.4	.	8.2	1.9	0.5	-3.1	3.4
49	CC(=O)c1ccc(NC(=O)CN2C(=O)COc3ccc(Cl)cc32)cc1	-4.5%	0.8	-1.9	0.3	-4.8	0.2	-5.7	2.5
50	COc1ccccc1OCC(=O)Nc1ccc(S(=O)(=O)N(C)c2ccccc2)cc1	0.2%	4.8	2.5	-3.0	1.4	-0.1	-1.1	10.1
51	Nc1cc(=O)[nH]c(SC/C=C/c2ccccc2)n1	20.6%	-6.2	.	3.8	0.3	0.2	46.3	1.5
52	COc1cc(NC(=O)CCc2nc(-c3cccs3)no2)cc(OC)c1OC	-1.9%	12.6	.	-1.0	0.7	-0.4	-4.2	-0.2
53	CCN(c1ccccc1)S(=O)(=O)c1ccc(Cl)c(C(=O)OCC(=O)NC(=O)C(C)C)c1	4.6%	-2.2	-11.5	-1.4	3.5	0.0	4.0	-4.0
54	COc1ccc([C@H]2/C=C\CN(S(=O)(=O)/C=C/c3ccccc3)[C@@H](C)C(=O)N2Cc2ccc(F)cc2)cc1	.	50.1	7.3	6.3	-0.1	0.8	2.4	1.4
55	O=C(Nc1sc2c(c1C(=O)O)CCCC2)c1cccc(Cl)c1	.	-22.2	-10.7	-4.6	2.3	-12.9	2.3	12.1
56	COCc1[nH]nc2c1C(c1ccsc1)C(C#N)=C(N)O2 (stereo not given)	2.3%	-15.2	.	-3.1	1.3	-0.1	-4.4	6.2
57	O=C(c1cccc([N+](=O)[O-])c1)c1ccc2[nH]c(=O)[nH]c2c1	.	1.7	-0.4	2.4	-2.9	-0.6	-4.1	-0.5
58	Oc1ccc(Br)cc1CNn1cnnc1	1.8%	-5.6	.	-4.2	-2.7	-0.6	-1.0	-1.3
